High-throughput results deposited in PubChem by Broad Institute.
Tg IFNy HTS: inhibitors of Toxoplasma gondii growth with IFN-gamma. Toxoplasma gondii growth in IFN-gamma-treated host cells; hits give low values; reference of the scale not given here. activity change, negative = inhibition, %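 (about 20 µM by stock and volumes)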. 69,000 compounds, 3.8% hits;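 active = below -70%; inconclusive = fit judged invalid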;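 also: host cells are HeLa cells infected with Toxoplasma gondii; parasite growth read as luciferase light; one replicate is shown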
An asterisk follows results filed as active; ? = inconclusive; & = joins results of further samples. This is a subset, so the mix of outcomes need not match the whole.

SMILES	Tg IFNy HTS
CC1CCCCN1C1CN(c2nc(-c3cccnc3)nc3c2cnn3C)C1 (stereo unspecified)	-13
CNC(=O)[C@@H]1CC2CN(S(=O)(=O)c3ccccc3)CC2N1C(C)=O (stereo partly specified)	31
CCC(NC(=O)c1c(F)cccc1F)C1=CCCN(CCO)C1 (stereo unspecified)	5
Cc1nn(C)cc1CN(Cc1cccnc1)Cc1cccs1	-28
O=C(c1cc2cccnc2n(Cc2ccccc2F)c1=O)N1CCc2ccccc21	11
O=C(O)C1CCC(c2cc3cccnc3c(-c3cccc(F)c3)n2)CC1 (stereo unspecified)	14
O=C(Nc1ccc(Cl)cc1)c1c(O)c2cccnc2[nH]c1=O	53
Cc1cccc(NC(=O)N2CCC3(CC2)CC(CC(=O)N(C)C)c2ccccc2O3)c1 (stereo unspecified)	-9
CCc1ccc(NC(=O)N2CCN(Cc3nc(-c4ccccc4C)oc3C)CC2)cc1	9
COc1ccc(NC(=O)N[C@H]2CC[C@H](CCNC(=O)CN3CCOCC3)O[C@@H]2CO)cc1	-22
COC1C2CCCC1CN(c1nncs1)C2 (stereo unspecified)	-13
O=C(NCCc1csc(-c2ccc(F)cc2)n1)c1ccccc1Br	33
Cc1cc(C)cc(CCC(=O)NCc2ccc(S(N)(=O)=O)cc2)c1	-3
O=C(CC1=CCNCC1)N1CCC(c2n[nH]c(=O)n2-c2ccccc2)CC1	-73*
Cn1cccc1C1(O)CCCC2CN(C(=O)c3n[nH]c(=O)c4ccccc34)CC21 (stereo unspecified)	-2

3 neighbouring records out of the list so far, quoted:
SMILES	Tg IFNy HTS
CC1CCCCN1C1CN(c2nc(-c3cccnc3)nc3c2cnn3C)C1 (stereo unspecified)	-13
CNC(=O)[C@@H]1CC2CN(S(=O)(=O)c3ccccc3)CC2N1C(C)=O (stereo partly specified)	31
CCC(NC(=O)c1c(F)cccc1F)C1=CCCN(CCO)C1 (stereo unspecified)	5

New compounds follow.
SMILES	Tg IFNy HTS
COc1ncc(-c2nccn2CCNc2ccncc2C)cn1	2
c1cncc(-c2nc3c(c(NCCCn4ccnc4)n2)CCNC3)c1	-1
CC(C)N(Cc1nccn1C)C(=O)C1CC(=O)N(C)c2ccccc21 (stereo unspecified)	-2
O=C(C[C@H]1CC[C@H]2[C@@H](COC[C@@H](O)CN2C(=O)Nc2ccccc2)O1)NCc1ccccc1F	1
COc1cccc(C(=O)N2CCC(Cc3nn(C)cc3C(=O)Nc3nccs3)CC2)c1	12
CC(NC(=O)CN1CCN(C(c2ccccc2)c2nccn2C)CC1)c1ccccc1 (stereo unspecified)	-7
CCN1CCC[C@H]1CNC(=O)c1c(O)c(Cl)cc(Cl)c1OC	16&10
CNC(=O)Nc1cc(C)nn1C(C)(C)C	42
CCc1ccn2c(C)c(-c3ccc(OC)c(OC)c3)cc2c1	19
CCOC(=O)c1cc(C2CC2)nc2c1c(=O)n(Cc1nc(-c3ccc(Cl)cc3)oc1C)c(=O)n2C	-59
CCn1c(C2CCCNC2)nn(CCc2cccc3ccccc23)c1=O (stereo unspecified)	11
COc1ccc(-c2nc(C)c(CCNS(=O)(=O)c3ccc(F)c(C(F)(F)F)c3)s2)cc1OC	18
Cc1cc(C)c(S(=O)(=O)NCc2nc(-c3ccccc3)oc2C)c(C)c1	47
Cc1cccc(S(=O)(=O)N2CCC(c3nc(C(=O)N(C)C)c(C)o3)CC2)c1	-42
CC(c1ccccc1)N1Cc2c(oc3ccccc3c2=O)N(C(=O)OCc2ccccc2)C1 (stereo unspecified)	-10
Cc1cc(C)c(NC(=O)Cn2c(=O)cc(-c3nc(C4CC4)no3)c3ccccc32)c(C)c1	-27
Cc1ccc(-c2ccc([C@H]3[C@H](CO)N4C(=O)CN(C(=O)NC(C)C)C[C@@H]34)cc2)cc1	-38
CSCCC(NC(=O)OC(C)(C)C)C(=O)Oc1ccc2c(=O)c(-c3ccc4c(c3)OCCO4)coc2c1 (stereo unspecified)	185
COc1ccc(CC(=O)NCc2cc(N(C)C)nc(-c3cccnc3)n2)cc1	5
CCS(=O)(=O)N1CCCC2(CCCN2CCCc2ccccc2)C1 (stereo unspecified)	-10
COc1ccc(-c2nc(Nc3ccc(F)cc3Cl)c3ccccc3n2)cc1	29
O=C(CCC1Nc2c3ccccc3nc(=S)n2C1=O)NCc1ccccc1Cl (stereo unspecified)	-28
CCNC(=O)c1ccc2nnc(C3CCN(C(C)C)C3)n2c1 (stereo unspecified)	-40
Cc1ccc(CN2CCc3ccc(=O)n(CC4CC4)c3CC2)o1	-21
CN1CCN(c2ccc(NS(=O)(=O)c3ccc(Br)cc3)cc2)CC1	-3
COC(=O)C(NC(=O)c1cnn2ccn(C)c12)c1cccc(C)c1 (stereo unspecified)	1
Cc1ccc(Nc2nc(C(=O)Nc3ccc(Cl)cc3F)nc3ccccc23)cc1	5
COc1ccc(CC(=O)N2CCC[C@]3(C(=O)O)CN(C)C[C@H]3C2)cc1	-2
NS(=O)(=O)c1ccc(NC(=O)CSc2ncn(-c3ccccc3)n2)cc1	5
CCn1c(O)c(/C=C2\C=Nc3ccccc32)sc1=O	347
Cc1ccc(CNC(=O)Cn2ncc3c(N4CCC(C)CC4)ncnc32)cc1	-94*
N[C@@H]1CC[C@@H](NS(=O)(=O)c2ccccc2OC(F)(F)F)C1	-4
O=c1[nH]c2ccccc2c(O)c1-c1nc(-c2ccc(Cl)cc2)no1	3
COCC(=O)N1CCC(c2nc3ccc(Nc4ccccc4)cn3n2)CC1	-19
CCOC(=O)c1ccc(NC(=O)CSc2nnc(CNc3ccc(F)cc3)o2)cc1	-100*
CCn1c(=O)c(C(=O)Nc2cccc(C)n2)c(O)c2ccccc21	74
CN(C)C(=O)c1ccc(-c2ccc3c(c2)[C@H]2[C@H](CCN2C(=O)C2CCCC2)[C@H](CO)N3C)cc1	-6
Cc1nonc1CN(C)C(=O)c1cccc(NCc2cccnc2)c1C	148
Cc1ccccc1NC(=O)CSc1nnc(CNC(=O)c2ccc3c(c2)OCO3)n1C	27
O=C(c1ccccc1F)N1CCc2c([nH]c3ccccc23)C1c1ccc(F)cc1 (stereo unspecified)	281
Cc1nonc1C(=O)Nc1ccc2c(c1)n(C)c(=O)n2C	21
c1nc(N2CCC(N3CCCCC3)CC2)c2nc3n(c2n1)CCCCC3	-39
CC(=O)Nc1ccc(OS(=O)(=O)c2c(C)cc(C)cc2C)cc1	15
COc1ccc(C#Cc2ccc3c(c2)[C@@H]2[C@@H](CCN2Cc2nccs2)[C@@H](CO)N3)cc1	0
CC(C)c1nc2ccccc2c2nn(CC(=O)Nc3cccc4ncccc34)c(=O)n12	19

An excerpt from above in order of SMILES length, high to low:
SMILES	Tg IFNy HTS
Cc1cccc(NC(=O)N2CCC3(CC2)CC(CC(=O)N(C)C)c2ccccc2O3)c1 (stereo unspecified)	-9
CCc1ccc(NC(=O)N2CCN(Cc3nc(-c4ccccc4C)oc3C)CC2)cc1	9
O=C(Nc1ccc(Cl)cc1)c1c(O)c2cccnc2[nH]c1=O	53
Cc1nonc1CN(C)C(=O)c1cccc(NCc2cccnc2)c1C	148

(more compounds)
SMILES	Tg IFNy HTS
O=C(CC1COCCN1)NCC1(c2cccc(F)c2)CCOCC1 (stereo unspecified)	11
CCN(CC)CCOC(=O)C1(c2ccc([N+](=O)[O-])cc2)CCCC1	18&36
COc1ccc2c3c(n(C)c2c1)[C@H](CO)N(C(=O)CN1CCOCC1)CC31CCN(Cc2ccncc2)CC1	69
CN1C(=O)c2cc(NS(C)(=O)=O)ccc2OC[C@@H]2O[C@@H](CC(=O)NCc3ccccc3)CC[C@H]21	8
O=C(CN1CCC(O)(CN2CCOc3ccccc32)CC1)CC12CC3CC(CC(C3)C1)C2	28
O=C(N(c1ccccc1)c1ccc(F)cc1)C12CC3CC(CC(C3)C1)C2	-83*
Cc1cccc2cc3c(nc12)OC(C)C(=O)N(Cc1cccnc1)C3 (stereo unspecified)	-1
CCNC(=O)[C@H]1[C@H](CO)[C@H]2Cn3c(ccc(-c4cccc(F)c4)c3=O)[C@H]2N1C(=O)Cc1cccnc1	2
CCc1nc2ccccc2n1CC(=O)Nc1ccc2c(C)cc(C)nc2n1	-10
O=C(COc1cccc(-n2cnnc2)c1)N1CCOCC1	-85*
CNC(=O)CC(C)N(C)CC1=Cc2cc(Cl)ccc2OC1 (stereo unspecified)	28
COc1cc(-c2cccc3c2CCNC3)cc2cc(C(=O)O)oc12	-46
O=C([C@H]1COC[C@@H]2CN(Cc3cccc(F)c3)C[C@@H]21)N1CCCCO1	2
Cc1c2n(c3ccccc13)CC/C2=N/OC(=O)c1ccc(Cl)cc1Cl	2
CN1C[C@@H]2CC[C@H](CC1=O)N2C(=O)c1ccc(-c2ccn[nH]2)cc1	3

Random excerpt: two compounds from above, in no set order.
SMILES	Tg IFNy HTS
O=C(CN1CCC(O)(CN2CCOc3ccccc32)CC1)CC12CC3CC(CC(C3)C1)C2	28
CCc1nc2ccccc2n1CC(=O)Nc1ccc2c(C)cc(C)nc2n1	-10

Next structures:
SMILES	Tg IFNy HTS
Nc1ccc(NC(=O)c2ccco2)cc1	3
O=C(NCCCn1ccnc1)c1cc(N2Cc3ccccc3C2)ccn1	-2
COc1cccc(-c2ccc3c(c2)O[C@H](CN(C)Cc2cccnc2)[C@H](C)CN([C@H](C)CO)S3(=O)=O)c1	?
CC(C(=O)NCc1csc(N)n1)N1C(=O)c2cccc3cccc1c23 (stereo unspecified)	-28
Cc1ccc2nc(Nc3ccccc3)cc(C)c2c1	6
COc1ccc(OC)c(S(=O)(=O)NCc2nc(-c3ccccc3)oc2C)c1	6
C[C@@H]1CN([C@@H](C)CO)C(=O)CCCn2nncc2CO[C@H]1CN(C)C(=O)c1cc(-c2ccccc2)on1	93
COc1ccccc1/C=C/CN1CCC2(CC1)C(=O)N(Cc1cccnc1)C(=O)N2C	1
CCn1c(=O)c(-c2nc(-c3ccc4c(c3)OCO4)no2)c(O)c2ccccc21	74
CCC(=O)N1CC(=O)N2[C@H](CO)[C@H](c3ccc(C#CCC(C)C)cc3)[C@@H]2C1	-28
CCN1C[C@@H](COC)[C@]2(CCN(C(=O)COc3ccccc3C)C2)C1	-54
c1csc(-c2nc(N3CCCCC3)no2)c1	21
COc1ccc(-c2ccc(S(C)(=O)=O)cc2)nn1	36
Cc1ccc(-c2cnc3ccccc3n2)cc1NC(=O)CN1CC(C)OC(C)C1 (stereo unspecified)	-20
COc1ccc(OC)c(CNC(=O)Cn2ncc3c(N4CCCC4)ncnc32)c1	8
COc1cccc(CC(C2CCN(C(=O)C3=CCCC3)CC2)N(C)C(=O)c2ccco2)c1 (stereo unspecified)	12
CCOC(=O)CN1CCc2nc(-c3cnn(C)c3)nc(N(C)C)c2C1	6
Cc1cc(C(=O)N2CC[C@H]3[C@@H]2CCN3c2nncs2)c(C)o1	-5
CC(C)C(=O)c1ccc2onc(-c3coc(-c4cccs4)n3)c2c1	-48
COC(=O)C1=CO[C@@H](O[C@@H]2O[C@H](CO)[C@@H](O)[C@H](O)[C@H]2O)[C@@H]2C(CO)=CC[C@H]12	1&12
COc1ccccc1C(=O)NCC1CCN(C2CCCCCC2)C1 (stereo unspecified)	-5
Cc1nn(-c2ccccc2)c(Cl)c1C1N2CCCN1CC2 (stereo unspecified)	28
CC(=O)N1CCCc2cc(C(O)CN3CCN(c4ccc5c(c4)OCCO5)CC3)ccc21 (stereo unspecified)	-23
CO[C@H]1CCN(Cc2cccc(C)n2)[C@H]2CN(Cc3ccncc3)C[C@@H]12	125
Cc1[nH]c2ccc(C(=O)NCc3cc(=O)[nH]c(-c4ccccn4)n3)cc2c1C	-2
Cc1cccc(C(C(=O)NCc2[nH]cc(C)c(=O)c2C)N(C)C)c1 (stereo unspecified)	0
O=C(c1ccccn1)N1CCc2ncnc(C3CCOC3)c2CC1 (stereo unspecified)	1
CCN1c2cc(C)ccc2-n2cccc2C12CCN(C(=O)c1ccc(OC)cc1)CC2	-90*
O=C(C[C@@H]1C=C[C@@H](NC(=O)Nc2ccccc2F)[C@H](CO)O1)NCc1ccc(-c2ccccc2)cc1	-26
C=CCN1CCC2(CC1)CC(NC(=O)c1csnn1)c1ccccc1O2 (stereo unspecified)	-31

By substructure: the entries above with two or more sulfur atoms
SMILES	Tg IFNy HTS
COc1ccc(-c2nc(C)c(CCNS(=O)(=O)c3ccc(F)c(C(F)(F)F)c3)s2)cc1OC	18
NS(=O)(=O)c1ccc(NC(=O)CSc2ncn(-c3ccccc3)n2)cc1	5

Other entries.
SMILES	Tg IFNy HTS
CCCC(=O)Nc1cccc(NC(=O)c2ccccc2Br)c1	24
O=C(c1ccco1)N1CCC2(CC1)COC(COCc1ccncc1)C2 (stereo unspecified)	-6
CCC1CN(Cc2cccc(CN3CCOCC3)c2)CCN1C(C)C (stereo unspecified)	-1
Cc1cc(C)c(NC(=O)Cn2c(=O)cc(-c3nc(C)no3)c3ccccc32)c(C)c1	35
C[C@@H]1CN([C@H](C)CO)C(=O)c2cccc(N(C)C)c2O[C@H]1CN(C)C(=O)Nc1ccc(F)cc1	-18
COc1ccc(NC(=S)N2CCCC(c3ccccc3)=N2)cc1	14
Cc1ccc(CS(=O)(=O)N2CCC(N(C)C)CC2C(=O)O)cc1 (stereo unspecified)	33
COCC1COCCC12CCN(C(=O)c1ccc(C)nc1)CC2 (stereo unspecified)	-51
COCC(=O)NCCc1sc(-c2ccc(Cl)cc2)nc1C	408
O=C(c1ccoc1)N1CCC2(CC1)CN(Cc1nccs1)CCO2	66
CCCn1cnnc1CNC(=O)c1cccc(-n2nc(C)cc2C)c1	2
c1ccc(-c2nnc3n2C2(CCCC2)Cc2ccccc2-3)cc1	-61
Cc1noc(C)c1NC(=O)Nc1ccc2c(c1)C(=O)N([C@H](C)CO)C[C@@H](C)[C@@H](CN(C)S(=O)(=O)c1ccc(F)cc1)O2	6
CC(C)Nc1ncnc2c1CCN(C(=O)C1CCC1)CC2	3
CS(=O)(=O)NC1CCN(CCn2c(=O)oc3ccccc32)CC1	-4
O=S(=O)(c1ccc(CN2CCCC(O)(CO)C2)cc1)N1CCOCC1 (stereo unspecified)	0
CCOc1ccc(C(=O)N2CCC(c3nc4ccccc4[nH]3)CC2)cc1	-4
